Screening data (PubChem)
Sfp PPTase inh – qHTS Assay for Inhibitors of Bacillus subtilis Sfp phosphopantetheinyl transferase (PPTase); 4'-phosphopantetheinyl transferase ffp (Bacillus subtilis), Q9F4F7; Biochemical Sfp PPTase activity, qHTS; Potency, µM, for inactives: max response, negative = inhibition, hits mostly inhibitors; hit rate 3.5% among 310,000; AID 1490, 2009; active = well fitted inhibition curve with a large enough effect; inconclusive = small, poorly fitted or top-dose-only effect, or another doubt; inactive = no such curve, though single readings can be large or run the other way;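 also: the enzyme is Sfp with the accession as filed and its product quenches rhodamine fluorescence; potency is read from the fitted curve at half-maximal effect; 0% = enzyme reaction without inhibitor and -100% = no enzyme wells; top concentration of the series not given in the record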
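Step 1, compound plus 15 nM Sfp-PPTase, 15 min, room temperature. Step 2, add rhodamine-CoA (5 uM) and BHQ-2-YbbR (12.5 uM). Step 3, read 525/598 nm fluorescence at 0 and 30 min.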
TRPML1 blocker – qHTS for Inhibitors of the Human Mucolipin Transient Receptor Potential 1 (TRPML1) | hit rate 0.02% among 390,000 | activity change, negative = inhibition, % (no concentration beside the values) | AID 624415, 2012 | TRPML1-inducible cells, Ca2+ dye fluorescence, FDSS; stronger effect = lower value; inhibition of EC80 agonist-evoked calcium signal | Mucolipin-1 (Homo sapiens), Q9GZU1; in the data active means activity change below about -50%; inconclusive means about -30% to -50%; inactive means above about -30%;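 also: stimulus is agonist 54-4 at its EC80 concentration; % is scaled to controls: 0 for no effect and ±100 for the full control effect; compound concentration not given in the record; the text of the record puts the active cut at -80%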
Target sequence (Q9GZU1 whole entry, looked up): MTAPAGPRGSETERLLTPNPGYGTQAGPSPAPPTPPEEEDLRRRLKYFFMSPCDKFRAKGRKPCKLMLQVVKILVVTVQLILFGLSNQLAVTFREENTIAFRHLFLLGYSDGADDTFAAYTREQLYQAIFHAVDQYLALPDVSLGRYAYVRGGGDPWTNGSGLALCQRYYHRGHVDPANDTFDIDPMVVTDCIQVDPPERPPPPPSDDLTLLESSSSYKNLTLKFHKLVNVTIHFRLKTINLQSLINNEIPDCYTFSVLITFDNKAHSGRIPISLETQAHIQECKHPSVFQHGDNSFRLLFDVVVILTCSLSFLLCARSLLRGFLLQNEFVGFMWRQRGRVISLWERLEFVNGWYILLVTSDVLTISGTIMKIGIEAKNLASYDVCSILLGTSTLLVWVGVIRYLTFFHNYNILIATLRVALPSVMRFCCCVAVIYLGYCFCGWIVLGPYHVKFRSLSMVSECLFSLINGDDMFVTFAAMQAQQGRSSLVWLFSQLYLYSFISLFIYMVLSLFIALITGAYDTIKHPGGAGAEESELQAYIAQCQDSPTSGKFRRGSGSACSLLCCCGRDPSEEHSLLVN
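TRPML1-DL cells, Tet-induced overnight (~16 h, 37 °C) at 1,500 cells/well, were loaded with Ca8 no-wash dye plus quencher for 45-90 min at room temperature. Compounds were pinned during FDSS kinetic reading; agonist 54-4 at EC80 (4 uM final) then added.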
TRPML1 ag – qHTS for Agonists of the Human Mucolipin Transient Receptor Potential 1 (TRPML1); AID 624414, 2012; Mucolipin-1 (Homo sapiens), Q9GZU1; activation, % (test concentration not listed); TRPML1-expressing cells, Ca2+ dye fluorescence, FDSS; host cell line not named in the record; reference of the full effect not given here; hit rate 0.12% among 410,000; in the data active = activation above about 50%; inconclusive = about 30% to 50%; inactive = below about 30%; also: 0% is about no effect; the text of the record puts the active cut at 80%
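In this qHTS format, compounds were pin-transferred onto Ca8-dye-loaded TRPML1-DL cells induced with Tet overnight, and intracellular Ca2+ fluorescence was recorded kinetically for 110 s after a 10 s baseline. A subsequent 4uM final 54-4 (EC80) addition followed by a second 110 s read served as the antagonist phase.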
ClpP mod – qHTS Assay for Activators of ClpP | ATP-dependent Clp protease proteolytic subunit (Bacillus subtilis (strain 168)), P80244 | purified B. subtilis ClpP, FRET peptide cleavage, 20 min | Potency, µM (highest dose often 57.5 µM), for the others: top-dose activity change, negative = active | hit rate 1.9% among 340,000 | AID 651965, 2013; active = well fitted falling curve with a large enough effect; inconclusive = small, poorly fitted or top-dose-only effect; inactive = no such curve, though single readings can be large or run the other way; also: potency is read from the fitted curve at half-maximal effect; the source files actives as falling curves though it sought activators and does not explain the sign; nearly all actives have a fitted effect of over 65% in size; many hits overshoot -100%
Target sequence (P80244 whole entry, looked up): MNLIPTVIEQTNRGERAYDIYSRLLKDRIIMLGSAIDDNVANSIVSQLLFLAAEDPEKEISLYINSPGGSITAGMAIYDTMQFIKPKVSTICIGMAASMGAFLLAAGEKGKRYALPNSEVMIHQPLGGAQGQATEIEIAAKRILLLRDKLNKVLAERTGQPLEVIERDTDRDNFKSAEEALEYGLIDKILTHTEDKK
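Purified B. subtilis ClpP, 10 microg/mL final in Tris/HCl pH8 with KCl, BSA, glycerol and Tween-20, cleaved an Abz/nitrotyrosine-quenched decapeptide. Fluorescence (ex 320, em 430) was read at 0 and 20 min at room temperature. Delta was normalized to 5.8 microM ADEP and DMSO/no-enzyme controls.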
TRPV1 potentiator – HTS Assay for Compounds that Act as Potentiators of the Vanilloid Receptor 1 | TRPV1-expressing cells, Fluo-8 calcium influx, capsaicin EC20 potentiation; host cell line not named in the record; control for the full effect not named in the record | potentiation, % at 8.33 µM | hit rate 0.02% among 320,000 | AID 540277, 2011; active means potentiation above 80%; inconclusive means 30% to 80%; inactive means below 30%; also: 0% is about no effect
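TRPV1-expressing cells were cultured overnight at 35.5C and loaded with Fluo-8 calcium dye for 40 to 90 min at room temperature. After a 10 s baseline, compound was added and calcium influx was read kinetically for 3 min (ex 480/em 520 nm).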
PINK1 expr mod – A Quantitative High throughput Screen to Identify Chemical Modulators of PINK1 Expression; PINK1 immunofluorescence, high-content cytometry, 24 h; hit rate 0.2% among 410,000; Potency, µM (top dose mostly 76.6 µM), inactives show top-dose activation (PINK1 increase), usual class: activators; active = well fitted activation curve with a large enough effect; inconclusive = small, poorly fitted or top-dose-only effect; inactive = flat fitted curve, though single readings scatter; cell line not stated here;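 also: potency is read from the fitted curve at half-maximal effect; % of control where 0% means no effect; nearly all actives have a fitted effect of over 65% in size; a mitochondrial uncoupler was the plate control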
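Measures PINK1 amount and localization on or inside mitochondria by immunofluorescence. Stable cells get compounds at 5 concentrations for 24 hours before fixation and staining; CCCP controls included.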
Menin MLL FP FL – qHTS Assay for Inhibitors Targeting the Menin-MLL Interaction in MLL Related Leukemias: Competition With Fluorescein Labeled MLL-derived Peptide; Fluorescence polarization, fluorescein-MLL peptide displacement from menin; FP activity change, % at 61.4 µM; 290,000 tested, under 10 active; AID 1766, 2009; inconclusive = falling polarisation curve, or a change in total fluorescence; inactive = total fluorescence flat and polarisation flat or rising; no compound was filed as active; the % refers to the polarisation; negative = inhibition;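 also: % of control where 0% means no effect; inhibitors lower the polarisation; unlabelled MLL peptide was the positive control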
An asterisk follows results filed as active; ? = inconclusive; . = no result given; & = joins results of further samples; [ ] = remark or other dose. No enrichment for hits; any-hit rate near 4.4%.

Under each structure: TRPML1 ag, Menin MLL FP FL, TRPV1 potentiator, PINK1 expr mod, Sfp PPTase inh, ClpP mod, TRPML1 blocker
O=C(CSc1ncc(-c2ccccc2)n1-c1ccccc1)NCc1ccco1
    1.3, -0.8, 2, -4.9%[38.3 µM], -7%, 1.5%, 18
CCOC(=O)c1ccccc1NC(=O)n1ncc2cc(Cl)ccc21
    -0.4, ., ., -0.1%, ., ?, -8
Cc1c(NC(=O)OCc2ccccc2)c(=O)n(-c2ccccc2)n1C
    -0.4, -0.5, -1, -0.1%, -2%, 1.8%, 9
O=C(Nc1ncc(Cc2ccc(F)cc2)s1)c1ccc2c(c1)CC(c1ccccc1)OC2=O (stereo not drawn)
    0.1, ., ., -0.2%, ., -3.6%, -6
CNC(=S)NCC(O)c1ccc([N+](=O)[O-])cc1 (stereo not drawn)
    0.1, 0.7, -6, 2.4%, 6%, ., -10
CCn1c2nc(SCCN3CCOCC3)nnc2c2cc(C)cc(C)c21
    -0.6, -0.2, -17, 0.8%, -2%, 0.9%, -10
O=C(O)c1ccc(-c2cccc([N+](=O)[O-])c2)o1
    ., -1.5, 10, -0.2%, 50µM*, 0.2%, .
CC1CCCCN1S(=O)(=O)c1ccc2[nH]c(=O)cc(C(=O)NCCc3ccc(Cl)cc3)c2c1 (stereo not drawn)
    -0.8, ., ., 0.9%, ., -10%, -3
COc1cccc(N(C(=O)c2ccco2)c2nc(-c3sc(NC(=O)c4ccco4)nc3C)cs2)c1
    0.7, 6.0, -3, -0.3%, -19%, 35%, 9
CCCCNC(=O)C1c2ccccc2OCC(=O)N1Cc1ccccn1 (stereo not drawn)
    1.1, ., ., -0.3%, ., -4.9%, .
Cc1c(NC(=O)CN2C(=O)NC(C)(c3ccc(Cl)cc3)C2=O)c(=O)n(-c2ccccc2)n1C (stereo not drawn)
    0.0, ., -2, 2.8%, ., -17%, 6
CC(=O)OC[C@@H]1CN(Cc2ccccc2)C[C@H](n2cnc3c(NCc4ccc(F)cc4)ncnc32)O1
    0.4, ., ., 2.0%, ., -4.8%, .
Cc1ccc(S(=O)(=O)N2CCOCC2)cc1C(=O)N1CCCCCC1
    0.4, ., 5, 0.7%, 17%, 0.5%, 18
Cc1c(O)cnc2nn(-c3ccccc3)c(=N)n12
    -0.8, ., ., -0.2%, ., 5.2%, .
Cc1ccccc1-c1cc(=O)c2ccccc2o1
    0.5, ., ., 0.7%, ., -3.3%, 77
COC(=O)c1cc(NC(=O)Nc2ccccc2OC)cc(C(=O)OC)c1
    0.8, 4.2, 2, 5.9%, 11%, -5.7%, -5
Fc1ccc(OCCCCCn2ccnc2)cc1
    0.0, 1.9, 8, 3.8%, -11%, ., -6
O=C(O)c1cc(-c2ccc3c(c2)OCO3)nc2ccc(Br)cc12
    -0.1, -3.7, 17, -0.5%, -5%, ., -9
CCC(Sc1ncnc2sc(C)c(C)c12)C(=O)OC (stereo not drawn)
    0.5, 4.6, 1, 0.0%, 0%, -1.5%, 46
COCc1cc(CNC(=O)C2CCC(=O)N(Cc3cccc(OC)c3)C2)[nH]n1 (stereo not drawn)
    -0.2, -5.9, 1, 2.8%, -2%, 0.8%, 22
CCC(c1nnnn1C(C)(C)C)N(Cc1ccco1)Cc1cc2cccc(C)c2[nH]c1=O (stereo not drawn)
    0.9, 4.5, -14, -2.5%, 56µM*, -12%, 26
COc1ccc(C(=O)NCC(c2ccc3c(c2)OCO3)N2CCN(C)CC2)cc1 (stereo not drawn)
    -0.5, ., ., -0.5%, ., 0.1%, 11
Cc1c(C)c2ccc(OCC(=O)N3CC[C@@]4(O)CCCC[C@H]4C3)cc2oc1=O
    ., -1.3, 10, 0.7%, 13%, 5.2%, .
O=C(c1n[nH]c2ccccc12)N1CCN(S(=O)(=O)c2ccccc2)CC1
    0.2, ., 0, 1.5%, ., -0.6%, 25
Cc1[nH]nc(SCC(=O)NC2CCCCC2)c1[N+](=O)[O-]
    -0.1, -0.2, 2, 0.8%, 7%, 0.5%, 25
Cc1cc(C(=O)OCC(=O)NC2(C#N)CCCCC2)c(C)o1
    -0.4, ., -35, -1.0%, ., 0.6%, -5
O=C1CN(C(=O)c2cc([N+](=O)[O-])ccc2Cl)C(c2ccccc2)c2cc(F)ccc2N1 (stereo not drawn)
    1.4, 0.0, 0, 2.0%, 9%, -12%, -1
Cc1ccc(N2C(=O)c3n[nH]c(C)c3C2c2ccc(C(C)C)cc2)cc1 (stereo not drawn)
    0.9, ., ., -0.8%, ., 1.0%, 3
O=C(COC(=O)C(O)c1ccccc1)NC12CC3CC(CC(C3)C1)C2 (stereo not drawn)
    -0.9, 2.2, -13, 1.4%, 10%, 4.4%, -18
Clc1ccc2[nH]cc(-c3nnnn3-c3ccccc3)c2c1
    -0.4, 0.4, -1, ?, 4%, -5.4%, 12
O=C1OCc2cc(NC(=O)C3COc4ccccc4O3)ccc21 (stereo not drawn)
    1.0, 4.8, -5, 1.0%, 4%, -0.9%, 10
O=C(O)c1c(NC(=O)N2CCCC2)sc2c1CCCC2
    1.2, 2.8, -39, 2.0%, -10%, ., -8
CNc1c(-n2cc(C(=O)OC)c(C(=O)OC)c2C(=O)OC)c(=O)n(C)c(=O)n1C
    -0.2, -2.8, -12, -1.0%, 10%, -1.1%, 40
COc1cc(CN2CCC(C(=O)NC(C)(C)C)CC2)ccc1OCc1ccccc1
    1.3, ., ., -0.1%, ., 0.3%, -6
CC(=O)NCc1cccc(CNC(C)=O)n1
    -0.6, 2.7, 6, 3.6%[38.3 µM], 11%, 0.4%, -13
CC(OC(=O)c1ccc2c(=O)n3c(nc2c1)CCC3)C(N)=O (stereo not drawn)
    0.4, -0.3, -4, 2.2%, 23%, ., 48
COC(=O)Nc1nncs1
    -0.1, 2.0, 1, 0.2%, 23%, -0.9%, 14
CCOc1ccc(NC(=O)c2cnn3c2NC(C)=C(C(=O)Nc2ccc(Cl)cc2)C3c2ccc(OC)c(OC)c2)cc1 (stereo not drawn)
    1.2, ., ., 5.9%, ., ?, -5
CCc1cccc(Oc2nn[nH]n2)c1
    -0.3, -1.4, ., 2.5%[38.3 µM], 5%, 1.4%, 2
Cc1ccc(Sc2c(C(=O)Nc3ccc(F)cc3F)c(C(F)(F)F)nn2C)cc1
    -0.5, 2.0, -6, 12%[38.3 µM], 14%, -1.6%, 6
Cc1ccc(S(=O)(=O)N(C)CC(=O)OCC(=O)c2c(N)n(C)c(=O)n(C)c2=O)cc1
    2.3, 1.5, 4, 0.0%, 7%, ., -2
COC(=O)c1cc(Sc2c(Cl)cccc2Cl)ccn1
    3.5, -1.6, 1, 4.8%, -1%, ., -2
Cc1ccc(OCCCC(=O)NCc2ccco2)c(C)c1
    ., 4.0, -13, ., 2%, ., .
NS(=O)(=O)c1cccc(NC(=O)c2cccs2)c1
    ., 2.9, -2, -0.5%, 6%, -2.1%, .
C=CC12C=CC=CN1C(C(=O)OC)=C(C(=O)OC)C(C(=O)OC)=C2C(=O)OC (stereo not drawn)
    0.8, 2.1, 6, -2.5%, -13%, -2.1%, 16
CCn1c(C2CC(=O)N(Cc3ccccc3)C2)nc2ccccc21 (stereo not drawn)
    -0.4, 2.6, -5, 3.9%, 27%, 1.3%, -5
O=C(CN1CCOCC1)n1c2c(c3ccccc31)CCCC2
    -0.6, -0.9, 4, 2.5%, -2%, ., 6
Cc1ccnc(SCc2cc(=O)c(OC(=O)c3cc([N+](=O)[O-])ccc3Cl)co2)n1
    -0.4, 4.3, 4, -1.0%, -11%, 0.5%, 11
Cc1cc(C)cc(N2C(=O)CC(Sc3ccccc3C(=O)O)C2=O)c1 (stereo not drawn)
    -0.4, 4.0, -3, -0.1%, 56µM*, 17%, 9
Cc1ccc2nc(NC(=O)c3ccc(S(=O)(=O)N4CCCc5ccccc54)cc3)sc2c1
    0.8&-0.5, 0.8, -1, 6.6%&9.5%, -4%, ?, -5&6

(cont.)
Under each structure: TRPML1 ag, Menin MLL FP FL, TRPV1 potentiator, PINK1 expr mod, Sfp PPTase inh, ClpP mod, TRPML1 blocker
O=C(CSc1nccc(=O)[nH]1)Nc1ccc(S(=O)(=O)N2CCOCC2)cc1
    0.4, 2.3, 15, 0.2%[38.3 µM], 2%, -4.7%, -2
CCC(C(=O)Nc1cc(-c2cn3cccnc3n2)ccc1C)c1ccccc1 (stereo not drawn)
    -0.3, ., ., 2.7%, ., 4.4%, 10
O=C(NC1CC1)c1ccc(NC(=O)C2CCC2)cc1
    -0.9, ., ., 5.5%, ., -2.6%, -9
O=C(NCc1ccccc1OC(F)(F)F)C1CCC(=O)N(Cc2cccc(F)c2)C1 (stereo not drawn)
    0.8, -0.3, 9, -0.3%, 14%, -3.2%, 10
OCCC1CN(Cc2ccc3nsnc3c2)CCN1C1CCCCC1 (stereo not drawn)
    -0.4, 3.3, -7, -0.1%, 7%, ., 1
CC(NC(=O)C1(C)CC1(Br)Br)C(C)(C)C (stereo not drawn)
    0.1, -0.9, -14, -0.8%, 19%, -4.2%, -13
